miR-21 FLuc: qHTS Assay for Modulators of miRNAs and/orActivators of miR-21; HeLa miR-21 FLuc reporter, luciferase, 48 h; Potency, µM (titrated, usually from 38.3 µM), inactives show at the top dose reporter change, positive = more light; 340,000 tested, under 10 active; AID 2288, 2010; active = well fitted rising curve with a large enough effect; inconclusive = small, poorly fitted or top-dose-only effect; inactive = no such curve, though single readings can be large or run the other way;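 also: % of control where 0% means no effect; miR-21 action dims this reporter so a rising signal means less miR-21 action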
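Using DMEM plus 10% FBS, HeLa miR-21-FLuc cells are incubated with test compounds (final up to about 40uM) for 48 hours; firefly luciferase signal is then imaged following reagent-mediated lysis.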
The depositor's hits bear a star; ? = inconclusive.

#	canonical_smiles	miR-21 FLuc
1	CSc1cccc(NC(=O)c2ccc3c(c2)c(C)c(C)n3Cc2ccc(F)cc2)c1	-3%
2	COc1cc(NC(=O)CN(c2ccc(C)cc2)S(=O)(=O)c2cccc3nonc23)cc(OC)c1	0%
3	CCOC(=O)c1[nH]c(C)c(CCC(=O)Nc2cc(Cl)ccc2C)c1C	-2%
4	O=S(=O)(c1ccc(-c2csc(=Nc3ccc(F)cc3)n2CCCCCCO)cc1)N1CCCC1	?
5	COc1cccc(NC(=O)Cn2c(=O)n(CCC(=O)NCc3ccccc3OC)c(=O)c3ccccc32)c1	13%
6	CC(=O)c1ccc(NC(=O)CCc2c(C)nn(-c3ccc4nnc(C)n4n3)c2C)cc1	-1%
7	Cc1ccc2nc(N3CCC(C(=O)N4CCN(c5cccc(Cl)c5)CC4)CC3)[nH]c2c1	17%
8	Cc1nc2sccn2c(=O)c1S(=O)(=O)Nc1cc(Cl)ccc1O	9%
9	Cc1ccc(CCNC(=O)c2cnc3c(C)cccn3c2=O)cc1	-13%
10	Cc1c(Cl)cccc1NC(=O)C1CCCN(c2nnc(-n3c(C)ccc3C)s2)C1 (stereo not drawn)	5%
11	Cc1cccc(-n2nc(C)c(C(=O)N3CCN(c4ccccc4)CC3)c2-n2cccc2)c1	12%
12	CCOC(=O)N1CCC(NC(=O)c2cnn(-c3ccc(F)cc3)c2-n2cccc2)CC1	2%
13	O=C1c2oc3ccccc3c(=O)c2C(c2cccc(O)c2)N1Cc1ccc(F)cc1 (stereo not drawn)	0%
14	CN(C)S(=O)(=O)Nc1ccc(-c2cn3ccsc3n2)cc1	-34%
15	CC(C)Oc1cccc(C2CC(=O)Nc3cc4c(cc32)OCO4)c1 (stereo not drawn)	?
16	COc1ccc(N2CCN(C(c3ccccc3F)c3sc4nc(-c5ccco5)nn4c3O)CC2)cc1 (stereo not drawn)	0%
17	CCOC(=O)c1c(-c2ccccc2)oc2ccc(OCc3ccc(C)cc3)cc12	-2%
18	CC(=O)N1c2ccccc2C(=O)C1N1CCN(c2ccc(F)cc2)CC1 (stereo not drawn)	2%
19	Cc1ccc2oc(C(=O)Nc3c(C(=O)Nc4cccc(Cl)c4)oc4ccccc34)cc(=O)c2c1	-4%
20	CCNc1ccc(-c2nc(-c3ccco3)no2)cc1[N+](=O)[O-]	-19%
21	CC(=O)N1CCc2c(sc3c2c(=O)n(CCc2ccccc2)c(=O)n3CC(=O)Nc2ccccc2F)C1	6%
22	Cc1ccc(-c2noc(-c3nnn(CC(=O)Nc4cc(Cl)ccc4C)c3N)n2)cc1	0%
23	Cc1cccc(NC(=O)Cn2cc(C(=O)c3ccco3)c3ccccc32)c1C	26%
24	Cc1ccc(NC(=O)c2oc3ccc(S(=O)(=O)N4CCCCCC4)cc3c2C)c(C)c1	-4%
25	CC(C)CCNC(=O)CN1C(=O)CCn2nc(-c3cn(C)c4ccccc34)cc21	-9%
26	CCOC(=O)COc1ccc(C2C(C(=O)OC)=C(C)NC3=C2C(=O)c2ccccc23)cc1Cl (stereo not drawn)	-11%
27	CCOC(=O)C1CCN(c2nc3c(S(=O)(=O)c4ccc(Br)cc4)nnn3c3ccsc23)CC1	-1%
28	Cc1cccc(NC(=O)c2ccc(N(Cc3ccccc3)S(C)(=O)=O)cc2)c1	14%
29	COc1ccc(-c2nc(CN3CCC(C(=O)NCc4ccccc4)CC3)c(C)o2)cc1OC	-3%
30	CCc1nn(CC(=O)NCc2ccccc2Cl)c(=O)c2cc3ccccc3n12	0%
31	CCCCN(CCCC)c1ncnc2c1cnn2-c1cccc(C)c1	-1%
32	COc1ccc(CCN2C(=O)c3oc4cc(C)cc(C)c4c(=O)c3C2c2ccc(F)cc2)cc1OC (stereo not drawn)	-5%
33	CC(C)OCCCNC(=O)c1c2c(nc3ccccc13)C(=O)N(C1CCCCC1)C2	0%
34	CCc1ccccc1N1C(=O)N(Cc2cccc(Cl)c2)c2ccccc2S1(=O)=O	27%
35	CC(Oc1ccccc1)C(=O)Nc1ccc(C(=O)OCc2cc(=O)n3nc(C4CC4)sc3n2)cc1 (stereo not drawn)	28%
36	CC(C)OCCCNC(=O)CN1C(=O)c2cccnc2Sc2ccccc21	2%
37	CC(C)Cc1nn2c(=O)cc(COC(=O)c3cccc(NC(=O)c4ccccc4)c3)nc2s1	-4%
38	Cc1ccccc1-c1noc(CSc2nc3ccccc3[nH]2)n1	-1%
39	O=C(NCc1ccccc1)c1ccc2c(c1)N(Cc1ccccc1F)C(=O)c1ccccc1S2=O (stereo not drawn)	-2%
40	COc1ccc(-c2nc3sc(CCNC(=O)C(=O)Nc4ccc(C)c(F)c4)c(C)n3n2)cc1	-42%

Screen by screen, as entered above:
miR-21 FLuc for entries 34 to 40: 27%, 28%, 2%, -4%, -1%, -2%, -42%

The list goes on.
#	canonical_smiles	miR-21 FLuc
41	COc1ccc(N(C)C(=O)Cn2cc(S(=O)(=O)N3CCN(c4ccccc4F)CC3)c3ccccc3c2=O)c(OC)c1	2%
42	CCCN1CCN(CCCNC(=O)c2ccc3c(c2)sc2nc(-c4ccc(OC)cc4)cn23)CC1	-10%
43	CCCN(CCC)C(=O)Cn1c(=O)n(-c2ccccc2)c(=O)c2c3c(sc21)CCCC3	7%
44	COc1ccc(Cc2nc3ccc(C(=O)NCc4cc(Br)ccc4OC)cc3o2)cc1	-5%
45	CC(C)CCNC(=O)CSCc1cnn(-c2ccccc2)c1-n1cccc1	-2%
46	CCn1cc2nc(SCc3cc(C)ccc3C)n(Cc3ccc(Cl)cc3)c(=O)c2n1	4%
47	Cc1ccc(-c2nnc(Nc3cccc(O)c3)c3ccccc23)cc1S(=O)(=O)N1CCOCC1	24%
48	COc1ccc(C)cc1NC(=O)COCc1cc(-c2ccc(F)cc2)on1	0%
49	Cc1nc2ccccc2c(=O)n1-c1ccc(NC(=O)c2cccc([N+](=O)[O-])c2)cc1	9%
50	CCc1ccc(CNc2ncc(-c3cccc(OC)c3)n2C)cc1	23%
51	Cc1cn2c(=O)cc(COc3ccccc3NC(=O)c3ccc(Cl)cc3)nc2s1	2%
52	Cc1cc(N2CCC(C(=O)Nc3ccc(F)cc3F)CC2)n2nc(C)c(-c3ccc(Cl)cc3)c2n1	0%
53	Cc1cccc(Cn2cccc2CNS(=O)(=O)c2ccccc2F)c1	-6%
54	COc1ccc(S(=O)(=O)N(CC(=O)Nc2cc(C)cc(C)c2)c2ccc(Cl)cc2)cc1	2%
55	Cc1ccc(C)c(S(=O)(=O)c2nnn3c2nc(N2CCOCC2)c2sccc23)c1	-11%
56	Cc1cccc(NC(=O)CCCCCn2c(=O)[nH]c3ccsc3c2=O)c1	-7%
57	Cc1ccc(-c2cnc(NCc3c(F)cccc3Cl)n2C)cc1	-15%
58	Cc1ccc(C(=O)N2CCC(c3c[nH]c4ccccc34)(c3c[nH]c4ccccc34)CC2)cc1	25%
59	CC(=O)N1c2ccc(S(=O)(=O)N3CCN(c4ccc(C)cc4C)CC3)cc2CC1C (stereo not drawn)	26%
60	Cc1cc(Cl)ccc1OCCSc1nnc(-c2cccs2)o1	-9%
61	COc1cccc(NC(=O)c2oc3ccc(S(=O)(=O)N(C)C4CCCCC4)cc3c2C)c1	21%
62	COc1ccc(OCc2ccc(-c3nc(C#N)c(NCc4ccccc4)o3)o2)cc1	-9%
63	COc1ccc(OC)c(-c2noc(N3CCN(c4cccc(C(F)(F)F)c4)CC3)n2)c1	4%
64	Cc1nn(-c2ccccc2)c2c1N(CC(=O)N1CCN(c3ccccc3F)CC1)C(=O)CS2	-2%
65	Nc1c(C(=O)c2ccccc2)sc(Nc2ccc(Cl)c(Cl)c2)c1C(=O)Nc1ccccc1	?
66	CCOC(=O)c1c(C)[nH]c(C)c1S(=O)(=O)N(C)CC(=O)N1CCN(c2cccc(C)c2C)CC1	15%
67	COc1cc(OC)c(NC(=O)c2cc(C(C)=O)n3ccccc23)cc1Cl	-13%
68	CCOc1ccc(C(=O)c2cn(Cc3ccc(Cl)cc3)c3cc(OC)c(OC)cc3c2=O)cc1	-5%
69	O=C(O)c1ccc(NC(=O)c2ccc(Cl)c(S(=O)(=O)N3CCCCCC3)c2)cc1	-10%
70	Cc1cccc(NC(=O)Cn2nc(-c3ccccc3)c3cnc4ccccc4c32)c1	-1%

Reformatted with the structure last: entries from further up.
No. | miR-21 FLuc | mol
68 | -5% | CCOc1ccc(C(=O)c2cn(Cc3ccc(Cl)cc3)c3cc(OC)c(OC)cc3c2=O)cc1
64 | -2% | Cc1nn(-c2ccccc2)c2c1N(CC(=O)N1CCN(c3ccccc3F)CC1)C(=O)CS2

2 records picked at random from those above, as already listed:
#	canonical_smiles	miR-21 FLuc
67	COc1cc(OC)c(NC(=O)c2cc(C(C)=O)n3ccccc23)cc1Cl	-13%
70	Cc1cccc(NC(=O)Cn2nc(-c3ccccc3)c3cnc4ccccc4c32)c1	-1%

Later entries
#	canonical_smiles	miR-21 FLuc
71	CCOc1ccccc1NC(=O)CN1C=NS(=O)(=O)c2ccccc21	-1%
72	Cc1ccc(NC(=O)Cn2cc3c(n2)CCCCC3)cc1	-1%
73	COc1cc(NC(=O)c2nn(C)c3c2COc2ccccc2-3)cc(OC)c1OC	-4%
74	CCOc1cc(C(c2c(C)[nH]n(-c3ccccc3)c2=O)c2c(C)[nH]n(-c3ccccc3)c2=O)ccc1O	12%
75	COc1ccc(N2CCN(C(=O)c3ccc4c(c3)NC(=O)C(CSCc3ccc(C)cc3)N4)CC2)cc1 (stereo not drawn)	0%
76	CCOC(=O)CSc1nc2c(sc3ccccc32)c(=O)n1Cc1ccc(C)cc1	-1%
77	Cc1nnsc1C(=O)Oc1ccc(C(C)C)cc1	2%
78	CC1=C(c2ccc(Cl)cc2)S(=O)(=O)N=C1N1CCN(c2cccc(C)c2C)CC1	-21%
79	CCCc1cc(=O)[nH]c(Nc2ccc(O)cc2C)n1	1%
80	CC(C)(C)c1ccc(C(=O)N2CCCC(c3nc4c(nnn4Cc4cccc(F)c4)c(=O)[nH]3)C2)cc1 (stereo not drawn)	7%
81	COC(=O)c1scc(-c2ccc(C)cc2)c1S(=O)(=O)Nc1cc(OC)c(OC)c(OC)c1	4%
82	COc1cc(-c2noc(-c3ccc(NCCc4ccccc4)c([N+](=O)[O-])c3)n2)cc(OC)c1OC	9%
83	CCOC(=O)c1ccc(NC(=O)C(CC)Sc2nc3ncccc3[nH]2)cc1 (stereo not drawn)	-5%
84	COc1ccc(C)cc1NC(=O)c1nnn(-c2c(C)cccc2C)c1C	4%
85	CCCCOc1ccc(C(=O)NCCS(=O)(=O)N2CCN(c3ccc(F)cc3)CC2)cc1	-7%
86	Cc1ccc(C)c(Cn2c3ccccc3c3cnn(CC(=O)NCCc4ccccc4)c(=O)c32)c1	-15%
87	CCOC(=O)CC(NC(=O)CCc1c(C)nc2cc(-c3ccccc3)nn2c1C)c1ccc(C)cc1 (stereo not drawn)	?
88	CCc1c(C)nc2nncn2c1Nc1ccc(C(C)C)cc1	15%
89	Nc1nonc1-c1nc2ccccc2n1CC(=O)Nc1cccc(Cl)c1Cl	1%
90	COc1ccc(Cc2nc3c4cnn(-c5ccccc5Br)c4ncn3n2)cc1	0%
91	COc1cc(Cl)c(C)cc1NC(=O)CCn1c(=O)c2cccn2c2cccnc21	1%
92	Cc1ccc(-c2nc(N3CCN(c4ccccc4Cl)CC3)c3ccccc3n2)cc1	-3%
93	COc1ccc(C(=O)N2CCN(C(=O)COc3ccccc3)CC2)cc1OC	-2%
94	COC(=O)C1=C(CS(=O)(=O)c2cc(Cl)ccc2OC)NC(=O)NC1c1ccccc1 (stereo not drawn)	6%
95	CCCSc1oc(-c2ccco2)nc1S(=O)(=O)c1ccc(Cl)cc1	4%
96	O=C(NCCCc1nc2ccccc2n1Cc1ccccc1)C1CCCCC1	3%
97	COc1cc(NC(=O)N2CCC(CN3CCc4ccccc4C3)CC2)cc(OC)c1	2%
98	CCCc1cc(=O)[nH]c(SCc2nc(-c3ccc(C)cc3)no2)n1	-2%
99	CCc1ccc(Nc2nc3ccccc3c3nnc(C)n23)cc1	6%
100	Cc1ccc2c(c1)c1c(c(=O)n(Cc3ccccc3)c(=O)n1CC(=O)Nc1ccccc1F)n2C	1%
101	Cc1cccc(N2CCN(C(=O)C3CCN(C(=O)c4cc5sccc5n4C)CC3)CC2)c1C	27%
102	CCOC(=O)C1CCN(C(=O)c2ccc(C)c(NC(=O)c3nsc4ccccc34)c2)CC1	0%
103	CCN(C(=O)CN1C(=O)c2ccccc2Sc2ccc(C(=O)OC)cc21)c1cccc(C)c1	-9%
104	Cc1ccc(C)c(N2CCN(C(=O)Cc3c(C(=O)O)c(C)cn3C)CC2)c1	0%
105	Cc1ccccc1CN1C(=O)c2ccccc2S(=O)c2ccc(C(=O)NC3CCC(C)CC3)cc21 (stereo not drawn)	-4%
106	CC1CCC(NC(=O)C2(C)Cc3ccccc3C(=O)N2Cc2ccccc2Cl)CC1 (stereo not drawn)	-1%

Reformatted field by field: 4 of the compounds above
100) Cc1ccc2c(c1)c1c(c(=O)n(Cc3ccccc3)c(=O)n1CC(=O)Nc1ccccc1F)n2C
  miR-21 FLuc = 1%
101) Cc1cccc(N2CCN(C(=O)C3CCN(C(=O)c4cc5sccc5n4C)CC3)CC2)c1C
  miR-21 FLuc = 27%
102) CCOC(=O)C1CCN(C(=O)c2ccc(C)c(NC(=O)c3nsc4ccccc34)c2)CC1
  miR-21 FLuc = 0%
103) CCN(C(=O)CN1C(=O)c2ccccc2Sc2ccc(C(=O)OC)cc21)c1cccc(C)c1
  miR-21 FLuc = -9%

Compound activity (PubChem)

A portion of the library; the hit share may differ from the screen's.
